Source: PubChem (several laboratories)
E coli growth – blocks Escherichia coli growth | OD600, 23 h; stronger effect = lower value | OD600 absorbance (no concentration beside the values) | hit rate 0.21% among 330,000;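 active = OD600 absorbance below the run mean of sample wells minus 3.6 SD, in any replicate, cut at about 0.56 in these data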;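 note: stock transfer was 300 nL into about 60 µL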
Beta apoptosis – beta cell apoptosis inhibition. INS-1E cytokine-induced death, ATP luminescence, 48 h; percent of positive-control rescue, neutral wells zero. protection from apoptosis, % (concentration not given with the values). hit rate 0.8% among 300,000. AID 435005;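 active = all replicates at 75% or more, or half of them and the mean; inconclusive = half reach 75% but not the mean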;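 note: 0% = cytokine-treated negative control wells and 100% = positive control rescue; higher means more ATP so stronger rescue from cytokine killing; wells of about 40 µL received 100 nL stock; the first replicate is given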
T cruzi inh – T. cruzi replication inhibition; T. cruzi beta-gal in NIH3T3, luminescence, 90 h; inhibition, % (no concentration beside the values); hit rate 1.4% among 300,000;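 active = mean inhibition across valid replicates above about 55%, limit read from the data; inconclusive = mean below that limit but half or more replicates reach it; inactive = mean below it, under half of replicates reach it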;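 note: signal also drops with host cell toxicity which is not excluded here; 0% = plate median of DMSO wells and 100% = zero luminescence signal; higher percent means less beta-gal luminescence so fewer parasites; stock transfer was 50 nL into about 50 µL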
AF4-AF9 inh – blocks AF4 peptide binding to human AF9; P42568; hit rate 0.47% among 350,000; AID 651704; inhibition, % at 10 µM; AlphaScreen, biotin-AF4 peptide binding to FLAG-AF9;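 active = every replicate reaching a set inhibition limit, whatever the replicate mean, cut at about 25% in these data; inconclusive = mean inhibition reaches that limit but some replicates miss it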;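 note: 0% = plate neutral control median and 100% = total signal loss; the record names both 10 and 1 µM as test concentration; the first replicate is given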
Target sequence (P42568 whole entry, looked up): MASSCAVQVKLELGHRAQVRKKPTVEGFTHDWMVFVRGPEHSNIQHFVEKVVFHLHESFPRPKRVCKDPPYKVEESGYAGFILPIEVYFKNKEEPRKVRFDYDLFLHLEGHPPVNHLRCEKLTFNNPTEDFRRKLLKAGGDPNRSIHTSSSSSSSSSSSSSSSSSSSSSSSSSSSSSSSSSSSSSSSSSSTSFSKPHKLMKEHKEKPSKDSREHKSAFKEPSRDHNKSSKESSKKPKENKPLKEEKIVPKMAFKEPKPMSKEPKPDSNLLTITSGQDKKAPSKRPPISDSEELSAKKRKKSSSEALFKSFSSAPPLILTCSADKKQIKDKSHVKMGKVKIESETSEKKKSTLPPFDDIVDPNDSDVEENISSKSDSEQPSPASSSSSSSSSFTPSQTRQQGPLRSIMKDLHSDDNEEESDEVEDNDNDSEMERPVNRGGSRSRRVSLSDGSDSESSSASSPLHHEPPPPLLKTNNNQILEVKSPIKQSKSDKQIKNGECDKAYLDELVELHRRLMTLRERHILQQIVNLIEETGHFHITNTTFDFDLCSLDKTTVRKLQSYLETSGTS
Ecoli rRNA inh – inhibitors of bacterial rRNA selective over humanized ribosomes; GFP signal change (wild-type ribosome), % (concentration not given with the values); hit rate 1.6% among 350,000; E. coli WT GFP vs humanized-ribosome RFP mutants, fluorescence, 24 h; stronger effect = lower value; DMSO median 0, no signal -100;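 active = significant combined selectivity score with lowered wild-type GFP, culture density cut under 30%, mutant RFP and density less affected; inactive = any of these conditions unmet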; note: one replicate is shown; some compounds called inactive have numbers as strong as hits
A1 inh – inhibitors of the anti-apoptotic protein A1, read as caspase activation; MEF A1-2A-BIM cells, Caspase-Glo 3/7 luminescence, 3 h; percent of clofoctol response, vehicle zero; caspase activation, % (no concentration beside the values); hit rate 0.066% among 330,000;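 active = over half of replicate activation scores above 10%, or exactly half above 10 with the replicate mean above 10; inconclusive = replicate mean below 10 yet half the replicates above 10; inactive = over half of replicates below 10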;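 note: wells of about 30 µL received 50 nL stock; many hits fall short of the cut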
FGF22 binding – shifts melting point of recombinant human FGF22; calls only at 9.99 µM; recombinant FGF22 thermal shift, SYPRO orange fluorescence; percent of sucrose octasulfate shift, DMSO zero; Q9HCT0; hit rate 1.5% among 340,000;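 active = melting point raised past a set limit in the mean and every replicate; inconclusive = no clear call; three in four hits are not shown here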
UCH37 DUB inh – blocks the human deubiquitinase UCH37 | AID 588478 | inhibition, % (concentration not given with the values) | hit rate 0.33% among 330,000 | purified proteasome/UCH37, Ub-AMC cleavage fluorescence;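 active = mean of two replicates above 20%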;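 note: 0% = compound-free wells with enzyme and 100% = wells lacking proteasome; stock transfer was 100 nL into about 20 µL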
Target sequence (Q9Y5K5 whole entry, looked up): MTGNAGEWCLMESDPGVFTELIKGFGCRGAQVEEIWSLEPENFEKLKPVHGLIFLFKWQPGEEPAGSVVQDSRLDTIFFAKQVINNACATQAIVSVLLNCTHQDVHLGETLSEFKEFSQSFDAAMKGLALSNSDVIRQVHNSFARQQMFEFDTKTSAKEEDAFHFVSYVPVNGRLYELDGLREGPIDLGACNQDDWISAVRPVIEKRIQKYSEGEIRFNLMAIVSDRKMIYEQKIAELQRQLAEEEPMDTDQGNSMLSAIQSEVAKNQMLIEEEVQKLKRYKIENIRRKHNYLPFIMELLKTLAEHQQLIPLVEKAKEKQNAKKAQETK
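Reagent: Ub-AMC substrate; assay system: Proteasome-associated human UCH37 deubiquitinase; controls: no-proteasome and no-compound wells; read-out: % inhibition of Ub-AMC cleavage fluorescence; timing: 30 min preincubation with enzyme, 25 min cleavage at room temperature; signal: AMC fluorescence from Ub-AMC cleavage, excitation 355 nm, emission 460 nm; buffer or medium: Tris-HCl pH 7.4 plus ovalbumin, ATP-MgCl2, DTT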
Ecoli rRNA inh OD600 – recorded beside Ecoli rRNA inh, whose call it bears; OD600 change, %; measured here: OD600 growth;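 optical density of the mix in the first replicate; 0 = DMSO median and -100 = no signal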
Ecoli rRNA inh RFP – further read-out of Ecoli rRNA inh, marked with its call; RFP signal change, %; measured here: RFP humanized mutant strains;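 first replicate; 0 = DMSO median and -100 = no signal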
An asterisk follows results filed as active; i = inactive; ? = inconclusive; . = not tested or not shown.

The line under a structure holds: AF4-AF9 inh	Ecoli rRNA inh	T cruzi inh	FGF22 binding	Ecoli rRNA inh OD600	Ecoli rRNA inh RFP	E coli growth	A1 inh	UCH37 DUB inh	Beta apoptosis
CCn1c(=O)c([N+](=O)[O-])c(N2CCN(Cc3ccc4c(c3)OCO4)CC2)c2ccccc21
  7.5	-24*	33	i	-18*	-3.3*	0.68	-0.2	4.4	129*
Cc1ccc(N(CC(=O)NCc2ccc(F)cc2)S(=O)(=O)c2cccs2)cc1
  .	.	14	.	.	.	0.69	-0.6	1.9	6
COc1ccccc1N1CCN(C(c2ccccc2)c2nnnn2CCc2ccccc2)CC1 (centres undefined)
  .	.	20	.	.	.	0.71	?	3.4	8
O=C(NCCc1ccccc1)C1CCN(c2ncccn2)CC1
  -6.6	3	0	i	-3	-5.3	0.72	0.6	-6.2	-2
O=C(c1noc2c1CCCCC2)N1CCN(C(c2ccccc2)c2ccccc2)CC1
  0.2	3	.	i	-6	1.6	0.73	.	3.1	.
COc1cccc(C(=O)CSc2nccn2C)c1
  5.9	-4	-13	i	9	-5.5	0.71	-2.1	7.6	0
CC(=O)Nc1ccc(S(=O)(=O)N2CCN=C2C)cc1
  .	.	-5	.	.	.	0.69	-0.6	-0.2	-2
CCCN(Cc1ccccc1)C(=S)Nc1cccc(C(F)(F)F)c1
  .	.	-10	.	.	.	0.68	3.1	2.7	4
O=C(NCC(c1cccs1)N1CCOCC1)c1cc(S(=O)(=O)N2CCOCC2)c(Cl)cc1Cl (centres undefined)
  1.3	0	-1	i	1	0.6	0.69	0.7	-0.9	-1
CC1CC(C)CN(C(=O)C(C)N(C)CC(=O)Nc2ccc(F)cc2)C1 (centres undefined)
  1.0	2	.	i	5	-2.3	0.71	0.0	-0.5	-1
Cc1cc(C)c(O)c(C2(O)C(=O)c3ccccc3C2=O)c1
  .	1	-9	i	2	-0.7	0.68	0.1	3.3	-3
COc1ccc(S(=O)(=O)NCCc2ccc(F)cc2)cc1
  .	.	11	.	.	.	0.65	0.1	1.6	6
Cc1nc(-c2nnc(SCC(=O)Nc3cc(Cl)cc(Cl)c3)n2C)cs1
  0.5	11	.	i	13	-0.9	0.69	-0.1	3.6	-8
O=C(COC(=O)CCCOc1ccc(Cl)cc1Cl)Nc1cccc(Cl)c1
  .	.	-21	.	.	.	0.7	-2.4	3.7	6
C/C(Nc1cccc(F)c1)=C(/C#N)C(N)=O
  -9.0	9	-9	.	-1	0.0	0.68	-0.1	-0.9	.
O=C(c1ccccc1)N1CCN(C2CC3CCC2C3)CC1 (centres undefined)
  .	.	3	.	.	.	0.67	0.4	3.7	0
Cc1nc(CS(=O)(=O)c2ccccc2)cc(N2CCOCC2)n1
  .	.	4	.	.	.	0.76	0.1	2.5	-4
C#CC(CC)(CC)NC(=O)c1ccc(Br)s1
  -0.1	-9	-2	i	-14	-1.4	0.7	0.5	2.8	3
CCN(C(=O)COC(=O)CNC(=O)C1CCCCC1)c1ccccc1
  -2.9	12	.	i	13	13	0.73	.	1.4	.
COc1ccc2cc(-c3[nH]ncc3CN3C[C@@H]4CCC[C@H]3C4)ccc2c1
  2.2	9	39	i	5	0.1	0.66	-0.6	-1.1	-4
CC(Sc1nc(NC(C)(C)C)nc(N(C)C)n1)C(=O)Nc1ccccc1 (centres undefined)
  -0.7	14	14	i	16	1.7	0.71	0.2	3.9	-6
CCc1nnc(SCC(=O)Nc2ccc(F)cc2)o1
  -2.1	13	0	i	8	0.6	0.69	0.4	2.8	-5
Cc1nc2cc(N=NC3=C(O)CCCC3=O)ccc2s1
  -0.8	17	-11	i	25	-0.9	0.66	-1.3	4.4	-5
COc1ccc(C)cc1S(=O)(=O)Nc1ccc2c(c1)OCO2
  0.5	-11	3	.	-18	2.0	0.7	0.7	4.5	-4
NC(=O)[C@@H]1CC2(CC(c3cccc(NC(=O)[C@@H]4CCC(=O)N4)c3)=NO2)CN1C(=O)Cc1ccc([N+](=O)[O-])cc1 (some centres undefined)
  3.4	20	-20	i	10	-3.1	.	0.9	-0.2	-2
Cc1ccc(-n2nnc(-c3cc4ccccc4nc3Cl)n2)cc1
  -4.2	7	8	i	-2	-5.4	0.73	-1.2	4.1	-3
O=C(NCc1ccccn1)C1CN(S(=O)(=O)c2ccccc2)CCN1S(=O)(=O)c1ccccc1 (centres undefined)
  -1.1	0	12	i	-11	-2.6	0.68	-0.1	0.1	-4
CC(C)c1cc(NC(=O)CCl)on1
  -1.5	12	2	i	8	4.3	0.62	1.7	3.2	-23
NC(=O)C(c1ccc(Cl)cc1)c1ccc(Sc2ccccc2)nn1 (centres undefined)
  .	.	2	.	.	.	0.68	1.6	0.4	-2
CC(C)COC(=O)c1ccc(NC(=O)C2C3C=CC(C3)C2C(=O)O)cc1 (centres undefined)
  .	.	2	.	.	.	0.74	-0.8	1.8	-1
COC(=O)c1c(C(=O)OC)c(-c2ccc(C(C)(C)C)cc2)n2c1CS(=O)C2 (centres undefined)
  0.8	-19	16	i	-25	-1.8	0.67	0.5	0.7	1
CCc1nc2c(cnn2-c2ccc(Cl)cc2)c(=O)n1-c1ccc(OC)cc1
  .	.	34	.	.	.	0.71	0.6	1.7	9
COc1ccc(CCNC(=O)CSc2ccc(-c3ccncc3)nn2)cc1
  5.6	5	-1	i	17	-4.4	0.65	0.8	0.1	-3
CCN(CC)S(=O)(=O)c1cccc(NC(=O)C2SC(=Nc3ccc(C)cc3C)C(C(=O)NCC3CCCO3)=C2N)c1 (centres undefined)
  .	.	24	.	.	.	0.73	0.3	5.5	-8
Cn1ncc(Cl)c1C(=O)NCC1CCCO1 (centres undefined)
  -0.9	17	-4	i	5	3.6	0.68	-1.0	2.3	5
O=C(CNC(=O)OCc1ccccc1)OC(c1ccccc1)c1ccccc1
  2.4	-7	.	.	-29	-12	0.65	.	2.3	.
c1ccc(-n2nnnc2SCc2ccccn2)cc1
  .	.	8	.	.	.	0.7	-0.3	2.5	-4
O=C(NCCC1=CCCCC1)C1CCN(S(=O)(=O)c2ccc(Br)s2)CC1
  .	.	24	.	.	.	0.65	0.0	0.1	.
CC(=NNC(=O)CCC(=O)Nc1ccccc1Cl)c1ccco1
  0.7	3	.	i	12	1.0	0.69	2.3	1.7	-5
CCCS(=O)(=O)c1c(S(=O)(=O)CCC)c2ccccn2c1C(=O)OC
  .	-14	-11	.	-8	-7.3	0.69	0.1	-11	.
COCCN(Cc1cc2cc(C)ccc2nc1Cl)C(=O)Nc1ccccc1OC
  -0.6	8	18	i	-8	-3.2	0.71	?	0.3	1
Cc1[nH][nH]c(=O)c1C(c1ccc(N(C)C)c(Br)c1)c1c(C)[nH][nH]c1=O
  0.0	12	3	i	10	-1.3	.	-0.5	.	-8
Cc1ccnc(NS(=O)(=O)c2ccc(NC(=O)Cc3c(F)cccc3Cl)cc2)n1
  -1.1	6	20	i	4	2.4	0.65	-0.1	2.1	5
CCOC(=O)c1sc(NC(=O)c2cccc(S(=O)(=O)N3c4ccccc4CC3C)c2)cc1C (centres undefined)
  -2.0	8	?	i	6	-9.5	0.64	0.0	-20	7
Nc1c2c(nc3sc4c(c13)CCCC4)-c1ccccc1CC2
  0.7	-12	2	i	-20	-4.5	0.63	-5.6	-8.8	8
O=C(NNc1ccccc1)C(=O)NNS(=O)(=O)c1ccc(CCCl)cc1
  3.6	-2	72*	i	1	-2.5	0.68	-0.1	3.5	0
COc1ccc(CCC(=O)N2CCN(c3cccc(C)c3C)CC2)cc1
  0.4	-9	7	i	-35	-0.4	0.69	0.0	2.7	5
Cc1ccc(S(=O)(=O)N2CCCCC2)cc1NC(=O)Cn1cnnn1
  -39	0	4	i	1	7.6	0.67	0.5	0.0	-7
Cc1cc(=O)c(C(=O)Nc2cccc(C(=O)NC3CC3)c2)nn1-c1ccccc1Cl
  -0.3	-3	.	i	7	-2.6	0.59	-2.0	3.5	-4
O=C(NNc1nc2c(F)cccc2s1)C1COc2ccccc2O1 (centres undefined)
  -2.7	-52	-10	i	-81	-14	0.65	-0.8	4.9	-5
CC[C@@]12C(=O)N(c3cccc(Br)c3)C(=O)N1[C@H](c1ccc(OC)cc1)[C@@H]1C(=O)N(C(C)(C)C)C(=O)[C@@H]12
  1.8	10	1	i	4	16	.	0.8	4.6	11
COc1cc2[nH]c(=S)n(Cc3ccco3)c(=O)c2cc1OC
  .	.	-10	.	.	.	0.69	0.3	2.8	0
NC(=O)CSCc1c(Cl)cccc1Cl
  5.9	8	-6	i	1	1.0	0.7	0.7	-0.8	-5
O=C1Oc2ccccc2C(=O)/C1=C/N1CCN(c2ccccc2F)CC1
  -2.0	-30*	-6	i	-12*	-0.1*	0.69	1.9	5.8	-2
CC1(C)Cc2ccccc2-c2nnc(SCC(=O)Nc3ccc4c(c3)OCO4)n21
  .	.	12	.	.	.	0.69	-0.1	2.3	3
COc1ccccc1C(=O)C(O)c1ccccc1OC (centres undefined)
  .	.	-1	.	.	.	0.67	0.2	-0.7	1
CCOc1ccc(N(CC(=O)NN=C2CCCC2)S(C)(=O)=O)cc1
  -1.6	9	-1	.	4	-1.4	0.75	-1.0	0.3	-3

The list is partial; count on the stated rates, not on these rows.
